# TRPML1 ag: agonists of human TRPML1 channel | TRPML1-expressing cells, Ca2+ dye fluorescence, FDSS; host cell line not named in the record; reference of the full effect not given here | activation, % (test concentration not listed) | 410,000 tested, 0.12% active | AID 624414; in the data active = activation above about 50%; inconclusive = about 30% to 50%; inactive = below about 30%; note: 0% is about no effect; the text of the record puts the active cut at 80%
# Target sequence (Q9GZU1 whole entry, looked up): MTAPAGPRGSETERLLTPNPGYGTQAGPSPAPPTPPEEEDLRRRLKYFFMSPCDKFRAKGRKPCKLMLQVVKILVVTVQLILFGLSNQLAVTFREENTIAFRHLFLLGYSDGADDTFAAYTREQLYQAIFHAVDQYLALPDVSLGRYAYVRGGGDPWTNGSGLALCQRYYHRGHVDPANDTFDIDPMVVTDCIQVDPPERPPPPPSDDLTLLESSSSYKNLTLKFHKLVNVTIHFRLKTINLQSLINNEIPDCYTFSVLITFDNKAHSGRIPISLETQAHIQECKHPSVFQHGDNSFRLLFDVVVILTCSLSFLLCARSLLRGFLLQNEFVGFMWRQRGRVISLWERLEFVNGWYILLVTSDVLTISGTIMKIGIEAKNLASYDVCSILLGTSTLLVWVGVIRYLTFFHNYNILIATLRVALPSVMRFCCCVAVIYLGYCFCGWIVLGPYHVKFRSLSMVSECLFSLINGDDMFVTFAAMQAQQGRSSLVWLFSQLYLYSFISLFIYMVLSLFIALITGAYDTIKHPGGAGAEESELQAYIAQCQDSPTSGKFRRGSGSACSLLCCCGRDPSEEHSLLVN
#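 Kinetic FDSS Ca2+ read in Tet-induced TRPML1-DL cells (ABD Ca8 dye plus quencher, 45-90 min RT loading): baseline, then compound, then 110 s agonist window; EC80 agonist 54-4 at 4uM final added afterwards for a 110 s antagonist window.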
# gsp ag: gsp mutant agonism; 340,000 tested, 0.13% active; gsp mutant cells, cAMP HTRF, 30 min; control for the full effect not named in the record; AID 624287; Potency, µM (highest dose often 76.9 µM), for the others: at the top dose activation (cAMP increase), actives largely listed as activators; active = well fitted activation curve with a large enough effect; inconclusive = small, poorly fitted or top-dose-only effect, or another doubt; inactive = no such curve, though single readings can be large or run the other way; cell line not stated here;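 note: phosphodiesterase inhibitor Ro 20-1724 added with compounds to block cAMP breakdown; potency is the fitted concentration of half-maximal effect; nearly all actives have a fitted effect of over 60% in size; about a fifth of the inactives were tested at one dose only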
#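 Cells stably selected in G418 were plated at 2000/well, grown 16-24 hr, then given compounds in DMSO with the PDE inhibitor […] (300 uM solution added) for 30 min at 37C; cAMP was read by HTRF.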
# Menin MLL FP FL: inhibitors of human menin-MLL interaction, wild-type MLL peptide; FP activity change, % at 61.4 µM; Fluorescence polarization, fluorescein-MLL peptide displacement from menin; 290,000 tested, under 10 active; inconclusive = falling polarisation curve, or a change in total fluorescence; inactive = total fluorescence flat and polarisation flat or rising; no compound was filed as active; the % refers to the polarisation; negative = inhibition;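 note: % of control where 0% means no effect; inhibitors lower the polarisation; unlabelled MLL peptide was the positive control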
# ClpP mod: qHTS Assay for Activators of ClpP. AID 651965, 2013. 340,000 tested, 1.9% active. ATP-dependent Clp protease proteolytic subunit (Bacillus subtilis (strain 168)), P80244. Potency, µM (highest dose often 57.5 µM), for the others: top-dose activity change, negative = active. purified B. subtilis ClpP, FRET peptide cleavage, 20 min; active = well fitted falling curve with a large enough effect; inconclusive = small, poorly fitted or top-dose-only effect; inactive = no such curve, though single readings can be large or run the other way; note: potency is the fitted concentration of half-maximal effect; the source files actives as falling curves though it sought activators and does not explain the sign; nearly all actives have a fitted effect of over 65% in size; many hits overshoot -100%
# Target sequence (P80244 whole entry, looked up): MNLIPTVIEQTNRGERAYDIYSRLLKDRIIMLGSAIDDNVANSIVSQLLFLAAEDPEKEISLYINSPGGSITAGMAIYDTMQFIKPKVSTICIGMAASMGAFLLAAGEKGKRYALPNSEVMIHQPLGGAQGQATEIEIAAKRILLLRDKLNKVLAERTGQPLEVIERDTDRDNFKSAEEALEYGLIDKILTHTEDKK
#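 Buffer: 100 mM Tris/HCl pH8, 100 mM KCl, 0.05% low protease BSA, 2.5% glycerol, 0.01% Tween-20. ClpP 10 microg/mL final; 20 min RT; delta FRET normalized to ADEP and DMSO controls.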
# gsp antagonist: gsp mutant antagonism; gsp-mutant cells, cAMP HTRF, 30 min; control for the full effect not named in the record; Potency, µM (top dose mostly 76.9 µM), inactives show top-dose activity change, negative = inhibition, usual class: inhibitors; 340,000 tested, 0.4% active; AID 624288; active = falling curve of any shape with a large fitted effect; inconclusive = falling curve, mostly with a smaller effect; inactive = flat or rising curve; cell line not stated here;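 note: intracellular cAMP measured with PDE inhibitor Ro 20-1724 present during compound exposure; potency is the fitted concentration of half-maximal effect; % is set by controls: 0 for no effect and ±100 for the full control effect; nearly all actives have a fitted effect of over 65% in size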
#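 Measurement of cellular cAMP by homogeneous time-resolved fluorescence following a 30 min compound exposure at 37C. The PDE inhibitor […] was present throughout; the assay buffer was DPBS with 0.05% BSA and 0.005% Tween 20.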
# TRPML1 inh: blocks the human TRPML1 channel; activity change, negative = inhibition, % (test concentration not listed); 390,000 tested, 0.02% active; TRPML1-inducible cells, Ca2+ dye fluorescence, FDSS; hits give low values; inhibition of EC80 agonist-evoked calcium signal; in the data active means activity change below about -50%; inconclusive means about -30% to -50%; inactive means above about -30%;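 note: stimulus is agonist 54-4 at its EC80 concentration; % is set by controls: 0 for no effect and ±100 for the full control effect; compound concentration not given in the record; the text of the record puts the active cut at -80%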
#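 Calcium fluorescence in TRPML1-DL cells induced overnight with Tet: a 110 s read after compound pin addition, then a 110 s antagonist read after challenge with 54-4 at 4 uM final (EC80).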
# Active calls of the source: *; ? = inconclusive; · = no result given; [ ] = another dose, or the depositor's remark.
SMILES,TRPML1 ag,gsp ag,Menin MLL FP FL,ClpP mod,gsp antagonist,TRPML1 inh
O=C(CN1C(=O)NC2(CCCC2)C1=O)N1CCN(c2cccc(C(F)(F)F)c2)CC1,0.1,-59%,·,-1.4%,3%,40
Cc1cnc(C)c(N2CCC(C(=O)NCc3cccs3)CC2)n1,-0.9,-15%,0.0,0.6%,8%,51
Cc1cc(Cl)ccc1NC(=S)NCCc1ccc(S(N)(=O)=O)cc1,-0.3,-6%,·,-0.2%,1%,-3
COc1cc(CC(=O)OCC(=O)N(C)C2CCCCC2)cc(OC)c1OC,-0.3,4%,·,0.4%,8%,27
CN(C(=O)c1ccc(OC2CCN(Cc3ccccn3)CC2)cc1)C1CCCCC1,-0.4,?,·,-1.3%,2%,35
Cc1[nH]n(-c2ccccc2)c(=O)c1CCO,0.2,10%,-4.9,·,9%,-19
O=C(CCC1CCCCC1)Nc1nncs1,-0.2,22%[15.4 µM],-0.9,-1.4%,-1%,8
O=C(Nc1ccccc1SCC1CSc2nc3ccccc3c(=O)n21)c1cccc(Cl)c1 (configuration not stated),2.4,19%,2.0,-8.0%,-13%,26
CC1COc2ccccc2N1C(=O)c1ccc(Cl)nc1 (configuration not stated),-0.8,14%[15.4 µM],-3.2,-2.0%,8%,-6
CCCCCn1c(=O)[nH]c2cc(C(=O)N3CCN(c4ccc(OC)cc4)CC3)ccc2c1=O,2.7,·,·,-0.2%,·,5
C[C@H](O)Cc1cn(-c2cc3cc(C#Cc4ccsc4)ccc3oc2=O)nn1,-0.1,·,·,2.9%,-15%,-5
Cc1cc2ccccc2c(=O)n1CC(=O)NCC(=O)N1CCCC1,-0.3,14%,2.9,?,1%[15.4 µM],-17
CCCN1C(=O)c2cc(C(=O)Nc3ccccc3C)ccc2C1Nc1ccccc1C (configuration not stated),0.9,12%[15.4 µM],-0.2,·,-14%,-2
CCN1CCN(CCCOc2ccc(Cl)cc2Br)CC1,0.2,-1%,4.8,-1.9%,4%,9
Cn1nnnc1SCCNC(=O)C1CCC(=O)N(Cc2ccccc2F)C1 (configuration not stated),3.6,4%,-2.8,-0.8%,-15%,9
Cn1nc(C(=O)Nc2ccc(F)c(Cl)c2)c2c1-c1ccccc1S(=O)(=O)C2,1.2,·,·,-2.8%,·,4
O=S(=O)(Nc1ccccc1OC(F)F)c1ccc(S(=O)(=O)N2CCCC2)cc1,0.0,28%,·,0.6%,-9%,-2
CCN1C[C@@H]2[C@@H]3C(=O)N(Cc4ccccc4)C(=O)[C@@H]3[C@](Cc3ccccc3)(C1=O)N2C(=O)c1ccc(Br)cc1,0.6,-4%,·,-1.7%,-5%,-13
COc1ccc(NC(=O)N(C)C[C@@H]2Oc3c(NC(=O)Nc4c(C)noc4C)cccc3C(=O)N([C@@H](C)CO)C[C@@H]2C)cc1,0.2,·,·,-6.3%,4%,-8
CCOC(=O)c1c(C)oc2nc(C)nc(N3CCN(c4ccccc4)CC3)c12,1.0,·,·,-4.2%,·,-6
O=C(O)c1cc(S(=O)(=O)O)ccc1O,-0.3,7%,1.7,20µM*,9%,12
CC(C)C(=O)Nc1ccc(NC(=O)c2cccc(F)c2)cn1,-0.2,-18%,0.6,1.6%,3%,10
O=C(NC1CCCCC1)N1CCc2ccccc21,-1.2,6%,3.5,-0.1%,1%,10
O=C(O)c1ccc2c(c1)C(=O)/C(=C\c1ccco1)C2=O,-0.4,27%,4.2,2.2%,9%,-11
CCN(CC)CCNc1ccc(CO)c2sc3ccccc3c(=O)c12,-0.6,·,-3.8,-2.6%,-6%,-19
COC(=O)Nc1c(-c2ccccc2)nc2ccc(Cl)cn12,-1.3,-8%[15.4 µM],-1.7,1.4%,-11%,-12
CC(C)(C)C(=O)Nc1nc2c(s1)COc1ccccc1-2,-0.3,19%,0.6,0.1%,-17%,7
Cc1ccc(-n2c(C)cc(/C=N\NC(=O)CC(=O)NC(C)C)c2C)cc1,2.6,6%,4.8,-2.9%,-5%,2
COc1cccc(N2CCN(S(=O)(=O)c3ccc4nc(-c5ccccc5)[nH]c4c3)CC2)c1,1.6,3%,3.8,-24%,-4%,-2
CC(=O)OCCN1C(=O)c2cccnc2C1=O,-0.5,-54%[inhibitor],-1.4,-0.3%,11%,6
CCN(C(=O)COC(=O)c1c(NC(C)=O)sc(C)c1C)C1CCS(=O)(=O)C1 (configuration not stated),0.0,22%,2.1,-10%,-10%,28
CCN(CC)CC(O)COc1ccccc1C(=O)CCc1ccccc1 (configuration not stated),1.0,-23%,0.3,-0.4%,-1%,-1
c1ccc(CCNc2nnnn2-c2ccccc2)cc1,-0.1,-4%,15,-5.1%,-7%,4
O=C(CCc1nc(CN2CCN(S(=O)(=O)c3ccc(Br)cc3)CC2)no1)N1CCCCC1,0.3,·,·,1.6%,·,20
CS(=O)(=O)c1ccc(Sc2nc3ccccc3[nH]2)c([N+](=O)[O-])c1,0.3,?,1.7,-1.7%,6%,17
O=C(CSc1nc2ccc(Cl)cc2[nH]1)NCCc1ccccc1,2.5,-2%,3.9,-1.9%,-16%,-6

# Part of the list above, reformatted.
# Order of values: TRPML1 ag, gsp ag, Menin MLL FP FL, ClpP mod, gsp antagonist, TRPML1 inh
CCN(CC)CCNc1ccc(CO)c2sc3ccccc3c(=O)c12
  -0.6, ·, -3.8, -2.6%, -6%, -19
COC(=O)Nc1c(-c2ccccc2)nc2ccc(Cl)cn12
  -1.3, -8%[15.4 µM], -1.7, 1.4%, -11%, -12
CC(C)(C)C(=O)Nc1nc2c(s1)COc1ccccc1-2
  -0.3, 19%, 0.6, 0.1%, -17%, 7
Cc1ccc(-n2c(C)cc(/C=N\NC(=O)CC(=O)NC(C)C)c2C)cc1
  2.6, 6%, 4.8, -2.9%, -5%, 2
COc1cccc(N2CCN(S(=O)(=O)c3ccc4nc(-c5ccccc5)[nH]c4c3)CC2)c1
  1.6, 3%, 3.8, -24%, -4%, -2

# More results
SMILES,TRPML1 ag,gsp ag,Menin MLL FP FL,ClpP mod,gsp antagonist,TRPML1 inh
CCOC(=O)C1=C(C)OC(N)=C(C#N)C1c1cc(OC)c2c(c1)OCO2 (configuration not stated),0.3,-13%,9.8,-4.1%,17%,6
Cc1cc(=O)oc2cc(OC(C)C(=O)NCC3CCCO3)ccc12 (configuration not stated),0.9,-28%[15.4 µM],2.9,-8.8%,0%,1
O=S(=O)(c1cccc(F)c1)N1CCN(c2nc(-c3cccnc3)nc3ccccc23)CC1,1.5,6%,·,?,?,10
COc1ccccc1CN(C)C(C)C(=O)Nc1cccc(C(C)=O)c1 (configuration not stated),-0.7,-13%[15.4 µM],3.9,-2.6%,-1%,-2
C#CCSc1n[nH]c(-c2ccco2)n1,2.4,-4%,-1.9,0.2%,4%,12
Nc1nnc(SCC(=O)NNC(=O)c2ccccc2F)s1,0.3,1%,·,·,4%,-1
COc1ccc(CN=C2Nc3ccccc3CS2)cc1,8.3,?,6.2,-3.3%,?,-3
CCN(CC)c1cc2c(cc1F)c(=O)c(S(=O)(=O)c1ccc(OC)cc1)cn2CC,-1.0,·,·,-11%,·,-15
O=C(NCCc1ccc(Cl)cc1)c1ccc2nccnc2c1,0.7,5%,·,0.6%,6%,-12
CNC(=O)CSc1nnnn1CCCOC,-0.4,7%,-0.9,1.2%,10%,15
Nc1ccccc1CCc1ccccc1N,0.1,?,·,-0.5%,·,-8
COc1ccc2c(C#CCCO)c(-c3ccc(S(C)(=O)=O)cc3)sc2c1,-0.1,?,·,4.3%,-5%,-5
O=C(c1ccco1)N1CCN(C(c2ccccn2)c2nnnn2C2CCCC2)CC1 (configuration not stated),-0.5,1%,-1.0,-0.8%,4%,-12
CCOc1ccccc1NC(=O)c1cccnc1,-0.2,-43%[inhibitor],·,0.1%,0%,-4
Cc1ccc(NC(=O)COC(=O)Cc2csc(-c3cccc(F)c3)n2)cc1C,1.3,1%,4.3,6.9%,-7%,0
Cc1ccc(NC(=O)c2ccc(=O)n(CC(=O)Nc3cc(C)cc(C)c3)n2)cc1,1.7,·,·,1.4%,·,-18
Cc1cc(NS(=O)(=O)c2ccc(NC(=O)CCCOc3ccc(Cl)cc3)cc2)no1,0.7,-29%,-0.3,-1.6%,-26%,11
CC1CCN(CC(=O)c2c[nH]c3ccccc23)CC1,0.4,-15%,4.2,2.6%,8%,-29
C/C(=C\C(=O)c1c(O)cc(C)oc1=O)N(C)C,1.8,17%[15.4 µM],?,·,1%,-17
Cc1onc(-c2c(Cl)cccc2Cl)c1C(=O)NCc1ccccn1,-0.5,-7%,0.1,0.8%,-6%,2
Cn1ncc2c(NNC(=O)c3ccccc3Cl)ncnc21,-0.1,11%,2.7,0.8%,5%,-9
O=C(Nc1cccc(O)c1)c1ccc(Br)cc1,0.9,-6%,5.6,1.1%,-15%,-4
Cc1cc([N+](=O)[O-])ccc1NC(=O)CSc1nccn1C,2.6,·,·,1.8%,·,20
O=C(CSc1nc2[nH]ncc2c(=O)n1-c1ccccc1)N1CCCc2ccccc21,3.4,0%,-3.1,-3.7%,11%,-7
Cc1ccc(S(=O)(=O)NCC(=O)NC2CCCCCC2)cc1,0.0,0%,3.8,4.2%,13%,-8
O=C1NC(Cc2ccccc2)C(=O)N1Cc1ccccc1 (configuration not stated),0.6,-12%,·,·,8%,4
Cc1nn(-c2ccc([N+](=O)[O-])cc2)c2c1C(c1ccc(OC(F)F)cc1)N1C(=N2)C(=O)Nc2ccccc21 (configuration not stated),2.0,0%,2.3,-0.2%,-7%,-11
Cc1ccc(-n2nc3c(c2NC(=O)c2ccc4c(c2)OCO4)CS(=O)(=O)C3)cc1C,0.6,1%,·,-3.3%,-9%,-5
CC(=O)Nc1ccc(-c2csc(NCc3ccccc3)n2)cc1,0.2,1%[15.4 µM],15,-18%,10%,30
Cc1ccc(NC(=O)Cc2nn(C)c(=O)c3ccccc23)cc1F,0.6,-66%[inhibitor],2.2,0.6%,-13%,11
CCc1ccc(/C=C2\SC(=S)N(CCC(=O)N3CCN(C)CC3)C2=O)cc1,0.7,18%,20,-3.2%,9%,2
CC(C)NC(=O)C1CCN(C2CCN(C(=O)C3=CCCC3)CC2)CC1,1.0,-9%,-0.1,0.1%,7%,12
COC(c1ccccc1)c1nnc(CCC(=O)N2CCCCCCC2)o1 (configuration not stated),0.1,-6%,-3.1,·,-1%,-1
CCOC(=O)COc1ccc(S(=O)(=O)NCc2cccnc2)cc1,0.1,14%,3.8,0.1%,-5%,-5
Cc1ccc2cccc(S(=O)(=O)n3nc(C)cc3C)c2n1,0.6,5%,-2.0,0.6%,-16%,9
CC(=O)NCCc1ccc(S(=O)(=O)N2CCN(c3nc(-c4ccccc4)c(C)s3)CC2)cc1,-0.2,22%,-0.1,0.1%,1%,21
COc1ccc(Cl)cc1NC(=O)CSc1nnc(Cn2c(=O)sc3ccccc32)n1C,1.2,13%,1.2,0.9%,-18%,-9
CCN(c1ccccc1)S(=O)(=O)c1ccc(OC)c(NC(=O)c2ccco2)c1,-0.1,-12%,·,1.6%,·,14

# Screening data from PubChem BioAssay.
